Screening data: PubChem BioAssay, Broad Institute
FGF22 binding – binders of recombinant human FGF22 by thermal shift | SYPRO orange fluorescence; percent of sucrose octasulfate shift, DMSO zero | calls only at 9.99 µM | Q9HCT0 | actives 1.5% (n = 340,000);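 active = melting point raised past a set limit in the mean and every replicate; three in four hits are not shown here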
Target sequence (Q9HCT0 whole entry, looked up): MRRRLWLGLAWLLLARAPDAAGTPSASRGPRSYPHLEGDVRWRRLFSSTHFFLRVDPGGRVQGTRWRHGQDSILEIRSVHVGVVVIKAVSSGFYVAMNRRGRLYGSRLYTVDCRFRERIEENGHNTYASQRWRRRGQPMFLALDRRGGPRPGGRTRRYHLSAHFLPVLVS
Calls only; i = inactive. Only part of the results is shown. The share of hits here may be higher or lower than overall.

| FGF22 binding | SMILES |
| --- | --- |
| i | Cc1noc(C)c1S(=O)(=O)Nc1ccc2c(c1)C(=O)N([C@H](C)CO)C[C@H](C)[C@@H](CN(C)Cc1ccncc1)OCCCC[C@@H](C)O2 |
| i | O=S1(=O)c2ccc(Br)cc2-n2nncc2CN1Cc1cccc(Cl)c1 |
| i | CC(C)NC(=O)Nc1ccc2c(c1)CC(=O)N([C@H](C)CO)C[C@@H](C)[C@@H](CN(C)S(=O)(=O)c1ccc(F)cc1)O2 |
| i | C[C@@H]1CCCCO[C@H](CN(C)Cc2ccc(C(=O)O)cc2)[C@@H](C)CN([C@H](C)CO)C(=O)c2cc(NC(=O)Nc3ccccc3)ccc2O1 |
| i | CCNC(=O)Nc1ccc2c(c1)C(=O)N(C)[C@H]1CC[C@H](CC(=O)Nc3ccccc3OC)O[C@@H]1CO2 |
| i | C[C@@H]1CCCCO[C@@H](CN(C)Cc2ccc(Cl)c(Cl)c2)[C@@H](C)CN([C@@H](C)CO)C(=O)c2cc(NC(=O)Nc3ccc(C(F)(F)F)cc3)ccc2O1 |
| i | C[C@H]1CN([C@@H](C)CO)C(=O)c2cc(C#CC3CCCCC3)cnc2O[C@H]1CN(C)Cc1cncnc1 |
| i | C[C@@H]1CN([C@H](C)CO)S(=O)(=O)c2ccc(C#CC3CC3)cc2O[C@H]1CN(C)C(=O)CN(C)C |
| i | COc1ccc(NC(=O)Nc2ccc3c(c2)C(=O)N([C@@H](C)CO)C[C@H](C)[C@@H](CN(C)S(=O)(=O)c2cn(C)cn2)O3)cc1 |
| i | CN(C)CC(=O)Nc1ccc2c(c1)[C@H]1C[C@H](CC(=O)NCc3cc(F)ccc3F)O[C@H](CO)[C@H]1O2 |
| i | COc1ccc(CN(C)C[C@@H]2Oc3ccc(NS(=O)(=O)c4ccc(F)cc4)cc3CC(=O)N([C@H](C)CO)C[C@@H]2C)cc1 |
| i | CCS(=O)(=O)NCC[C@H]1CC[C@@H](NC(=O)Cc2ccccn2)[C@H](CO)O1 |
| i | O=C(O)C[C@@H]1C[C@H]2c3cc(NC(=O)Nc4ccccc4)ccc3O[C@H]2[C@H](CO)O1 |
| i | c1ccc(Cn2cc(CCOCc3ccccn3)c3ccccc32)cc1 |
| i | COc1ccc(S(=O)(=O)N(C)C[C@H]2Oc3ccc(NS(=O)(=O)c4ccc(C)cc4)cc3C(=O)N([C@@H](C)CO)C[C@H]2C)cc1 |
| i | C[C@@H]1CN([C@@H](C)CO)C(=O)c2cccc(NS(=O)(=O)c3cn(C)cn3)c2O[C@@H]1CN(C)Cc1ccncc1 |
| i | C[C@@H]1CCCCO[C@@H](CN(C)Cc2ccc(C(=O)O)cc2)[C@H](C)CN([C@@H](C)CO)C(=O)c2cc(NC(=O)CCC(F)(F)F)ccc2O1 |
| i | O=C(NCC[C@@H]1CC[C@@H](NC(=O)c2cnccn2)[C@@H](CO)O1)Nc1ccc(F)cc1 |
| i | CC(C)NC(=O)N1C[C@@H]2[C@H](c3ccccc31)[C@@H](CO)N2C(=O)c1ccc(F)cc1 |
| i | COC(=O)C1=C(C)N(Cc2ccc(C(F)(F)F)cc2)C(=NCc2ccc(C(F)(F)F)cc2)NC1c1ccccc1 (stereo unspecified) |
| i | C[C@@H]1CN([C@@H](C)CO)C(=O)c2cc(NC(=O)Nc3ccccc3)ccc2O[C@@H](C)CCCCO[C@H]1CN(C)Cc1ccccc1 |
| i | COc1ccc(NC(=O)N(C)C[C@H]2OCCCC[C@H](C)Oc3ccc(NS(=O)(=O)c4c(C)noc4C)cc3C(=O)N([C@@H](C)CO)C[C@H]2C)cc1 |
| i | CCC(=O)N1C[C@@H](O)COC[C@@H]2O[C@H](CC(=O)NCc3ccc(Oc4ccccc4)cc3)CC[C@H]21 |
| i | C[C@@H]1CN([C@@H](C)CO)S(=O)(=O)c2ccc(/C=C/c3ccccc3)cc2O[C@@H]1CN(C)CC1CC1 |
| i | O=C(Nc1cc(F)ccc1F)N1CC(=O)N2[C@H](C1)[C@H](c1ccc(C#CC3CCCC3)cc1)[C@@H]2CO |
| i | CO[C@H]1CN(C)C(=O)c2cc(NC(=O)Nc3ccccc3Cl)ccc2OC[C@@H](C)NC[C@@H]1C |
| i | COC(=O)C1=C(C)N(Cc2ccccc2C(F)(F)F)C(=NCc2cc(OC)c(OC)c(OC)c2)NC1c1cccc(C(F)(F)F)c1 (stereo unspecified) |
| i | O=C(Nc1ccc(F)cc1)N[C@@H]1CC[C@H](CCn2cc(C3(O)CCCC3)nn2)O[C@H]1CO |
| i | CO[C@H]1CN(C)C(=O)c2ccc(NC(=O)c3ccno3)cc2OC[C@H](C)NC[C@@H]1C |
| i | O=C(O)C[C@@H]1C=C[C@@H](NC(=O)c2ccccc2F)[C@H](CO)O1 |

An excerpt of these results, tab-delimited.
mol	FGF22 binding
C[C@@H]1CN([C@@H](C)CO)S(=O)(=O)c2ccc(/C=C/c3ccccc3)cc2O[C@@H]1CN(C)CC1CC1	i
O=C(O)C[C@@H]1C=C[C@@H](NC(=O)c2ccccc2F)[C@H](CO)O1	i

Other results
| FGF22 binding | SMILES |
| --- | --- |
| i | C/C=C/c1ccc2c(c1)O[C@@H](CN(C)C(=O)CC)[C@H](C)CN([C@H](C)CO)S2(=O)=O |
| i | C[C@H](CO)N1C[C@H](C)[C@@H](CN(C)Cc2cccc(C(=O)O)c2)Oc2cc(C3=CCCCC3)ccc2S1(=O)=O |
| i | O=C(c1ccc2c(c1)OCO2)N1C[C@@H]2N[C@H](C1)C2c1ccc(-c2ccccc2F)cc1 (stereo partly specified) |
| i | Cc1noc(C)c1NC(=O)N(C)C[C@H]1Oc2c(NS(=O)(=O)c3ccccc3)cccc2C(=O)N([C@H](C)CO)C[C@H]1C |
| i | COc1ccc2c3c(n(C)c2c1)[C@H](CO)N(CC1CC1)CC31CCN(C(=O)c2ccccc2)CC1 |
| i | CCCNC(=O)N1[C@@H](C#N)[C@H](c2ccc(C#Cc3ccc(F)cc3)cc2)[C@@H]1CO |
| i | C[C@H](O)C#Cc1ccc2c(c1)O[C@H](CN(C)C(=O)CN(C)C)[C@H](C)CN([C@@H](C)CO)S2(=O)=O |
| i | C[C@H](CO)N1C[C@H](C)[C@@H](CN(C)Cc2cccnc2)OCc2ccccc2-c2ccccc2C1=O |
| i | COc1ccc(-c2ccc([C@H]3[C@H](C#N)N[C@@H]3CO)cc2)cc1 |
| i | C[C@H]1CN([C@@H](C)CO)C(=O)c2cc(-c3ccncc3)cnc2O[C@@H]1CN(C)C(=O)Cc1cccnc1 |
| i | CN1c2ccc(Br)cc2[C@@H]2[C@@H](CCN2S(=O)(=O)c2ccc(F)cc2)[C@H]1CO |
| i | C[C@@H]1CN([C@H](C)CO)C(=O)Cc2cc(NS(C)(=O)=O)ccc2O[C@H]1CN(C)Cc1ccc(C(=O)O)cc1 |
| i | COc1ccc(NC(=O)Nc2ccc3c(c2)C(=O)N([C@H](C)CO)C[C@H](C)[C@H](CN(C)C(=O)Nc2c(C)noc2C)OCCCC[C@H](C)O3)cc1 |
| i | C[C@H](CO)N1C[C@H](C)[C@@H](CN(C)C(=O)Nc2cc(F)ccc2F)Oc2cc(C#CC3CCCC3)ccc2S1(=O)=O |
| i | CN(C)CCCNC(=O)C[C@@H]1CC[C@@H]2[C@@H](COc3ccc(NS(C)(=O)=O)cc3C(=O)N2C)O1 |
| i | N#Cc1[nH]nc2nc[nH]c(=O)c12 |
| i | CCc1csc(N2[C@H](CO)[C@H](c3ccc(-c4cccc(F)c4)cc3)[C@@H]2C#N)n1 |
| i | C[C@H](CO)N1C[C@H](C)[C@H](CN(C)C(=O)Nc2ccccc2)Oc2ccc(NC(=O)Cc3cn(C)c4ccccc34)cc2CC1=O |
| i | C[C@H](O)C#Cc1ccc2c(c1)O[C@@H](CN(C)C(=O)CN(C)C)[C@H](C)CN([C@H](C)CO)S2(=O)=O |
| i | C[C@@H]1CN([C@@H](C)CO)C(=O)c2cc(NC(=O)Cc3ccccc3)ccc2O[C@@H](C)CCCCO[C@@H]1CN(C)S(=O)(=O)c1ccc(F)cc1 |
| i | C[C@@H]1CN([C@@H](C)CO)C(=O)c2cccc(NC(=O)Nc3ccc(F)cc3)c2O[C@H]1CN(C)S(=O)(=O)c1ccccc1 |
| i | CC(=O)N(C)C[C@H]1Oc2cc(-c3ccccc3F)ccc2S(=O)(=O)N([C@@H](C)CO)C[C@H]1C |
| i | C[C@H](CO)N1C[C@H](C)[C@H](CN(C)C(=O)Nc2ccc3c(c2)OCO3)Oc2c(NS(=O)(=O)c3cn(C)cn3)cccc2C1=O |
| i | COc1ccccc1CN1[C@H](CO)[C@H]2c3ccccc3N(C(=O)C3CCCCC3)C[C@H]21 |
| i | CC(C)NC(=O)N(C)C[C@@H]1Oc2ccc(NS(=O)(=O)c3ccccc3)cc2C(=O)N([C@H](C)CO)C[C@@H]1C |
| i | CN1CCCCN2[C@@H](CO)[C@H](c3ccc(-c4cccnc4)cc3)[C@@H]2C1 |
| i | Cc1ccc(S(=O)(=O)Nc2ccc3c(c2)CC(=O)N([C@H](C)CO)C[C@@H](C)[C@@H](CN(C)S(=O)(=O)c2cccs2)O3)cc1 |
| i | CN1C(=O)c2cc(NC(=O)Nc3ccccc3)ccc2OC[C@@H]2O[C@H](CC(=O)NC3CCC3)CC[C@H]21 |
| i | OC[C@H]1[C@H](c2ccc(C#Cc3ccccc3)cc2)[C@H]2CN(CC3CCOCC3)CCCCN21 |
| i | C[C@@H]1CN([C@H](C)CO)C(=O)c2cccc(NC(=O)C3CCOCC3)c2O[C@@H]1CN(C)S(C)(=O)=O |

Some of the entries above in a different format.
molecule | FGF22 binding
c1ccc(Cn2cc(CCOCc3ccccn3)c3ccccc32)cc1 | i
COc1ccc(S(=O)(=O)N(C)C[C@H]2Oc3ccc(NS(=O)(=O)c4ccc(C)cc4)cc3C(=O)N([C@@H](C)CO)C[C@H]2C)cc1 | i
C[C@@H]1CN([C@@H](C)CO)C(=O)c2cccc(NS(=O)(=O)c3cn(C)cn3)c2O[C@@H]1CN(C)Cc1ccncc1 | i
C[C@@H]1CCCCO[C@@H](CN(C)Cc2ccc(C(=O)O)cc2)[C@H](C)CN([C@@H](C)CO)C(=O)c2cc(NC(=O)CCC(F)(F)F)ccc2O1 | i
O=C(NCC[C@@H]1CC[C@@H](NC(=O)c2cnccn2)[C@@H](CO)O1)Nc1ccc(F)cc1 | i

The list goes on.
| FGF22 binding | SMILES |
| --- | --- |
| i | Cc1noc(C)c1NC(=O)Nc1ccc2c(c1)C(=O)N([C@H](C)CO)C[C@H](C)[C@H](CN(C)Cc1ccc(Cl)c(Cl)c1)O2 |
| i | C[C@@H]1CCCCO[C@@H](CN(C)Cc2ccc(Cl)c(Cl)c2)[C@H](C)CN([C@@H](C)CO)C(=O)c2cc(NS(=O)(=O)c3ccc(F)cc3)ccc2O1 |
| i | Cc1cc(C(=O)Nc2cccc3c2O[C@H](CN(C)Cc2ccccc2)[C@@H](C)CN([C@@H](C)CO)C3=O)n(C)n1 |
| i | O=C(Nc1cccc(Cl)c1)N[C@@H]1CC[C@H](CCNC(=O)C2CCOCC2)O[C@H]1CO |
| i | C[C@@H]1CN([C@H](C)CO)S(=O)(=O)c2ccc(C#CC3CC3)cc2O[C@@H]1CN(C)C(=O)C1CCC1 |
| i | C/C=C/c1ccc2c(c1)O[C@@H](CN(C)C(=O)NC1CCCC1)[C@H](C)CN([C@@H](C)CO)S2(=O)=O |
| i | Cc1ccc(S(=O)(=O)Nc2ccc3c(c2)C(=O)N([C@@H](C)CO)C[C@@H](C)[C@@H](CN(C)Cc2ccc(Cl)c(Cl)c2)O3)cc1 |
| i | C[C@H](CO)N1C[C@H](C)[C@H](CN(C)Cc2ccc(-c3ccccc3)cc2)Oc2ncc(C#CCN(C)C)cc2C1=O |
| i | C[C@@H]1CN([C@H](C)CO)C(=O)c2cccc(NC(=O)C3CCOCC3)c2O[C@@H]1CN(C)Cc1ccc(Cl)c(Cl)c1 |
| i | C[C@H](CO)N1C[C@H](C)[C@@H](CN(C)S(=O)(=O)c2ccc(Cl)cc2)OCCCC[C@H](C)Oc2ccc(NC(=O)Cc3ccccc3)cc2C1=O |
| i | C[C@H]1CN([C@@H](C)CO)C(=O)Cc2cc(N(C)C)ccc2O[C@H]1CN(C)C(=O)Nc1ccc(C(F)(F)F)cc1 |
| i | CCC(=O)N1CC2(C1)[C@H](c1ccc(-c3ccc(C)cc3)cc1)[C@@H](CO)N2S(=O)(=O)CC |
| i | O=C(CN1CCOCC1)NCC[C@@H]1CC[C@@H](NC(=O)c2ccccc2F)[C@@H](CO)O1 |
| i | COc1cccc(NC(=O)C[C@@H]2CC[C@@H]3[C@H](COc4ccc(NC(=O)C5CC5)cc4C(=O)N3C)O2)c1 |
| i | Cc1noc(C)c1NC(=O)Nc1ccc2c(c1)C(=O)N([C@@H](C)CO)C[C@@H](C)[C@@H](CN(C)S(=O)(=O)c1cn(C)cn1)OCCCC[C@H](C)O2 |
| i | COc1ccccc1C#Cc1ccc2c(c1)O[C@@H](CN(C)Cc1ccccc1)[C@@H](C)CN([C@@H](C)CO)S2(=O)=O |
| i | C/C=C/CN(C(=O)C#Cc1ccccc1)[C@H](CO[Si](C)(C)C(C)(C)C)c1ccccc1 |
| i | C[C@H](CO)N1C[C@H](C)[C@H](CN(C)Cc2ccc(C(=O)O)cc2)Oc2ccc(NS(C)(=O)=O)cc2C1=O |
| i | CCCNC(=O)C[C@@H]1CC[C@@H]2[C@@H](COc3ccc(NC(=O)C4CCOCC4)cc3C(=O)N2C)O1 |
| i | CC(C)NC(=O)N1C[C@H]2[C@@H](c3ccccc31)[C@H](CO)N2Cc1ccc(Cl)cc1 |
| i | CO[C@H]1CN(C)C(=O)c2ccc(NS(=O)(=O)c3ccccc3F)cc2OC[C@@H](C)NC[C@@H]1C |
| i | Cc1ccc(-c2cnc3c(c2)C(=O)N([C@@H](C)CO)C[C@@H](C)[C@@H](CN(C)C(=O)CN(C)C)O3)cc1 |
| i | Cc1noc(C)c1S(=O)(=O)N(C)C[C@@H]1OCCCC[C@@H](C)Oc2ccc(NC(=O)NC(C)C)cc2C(=O)N([C@H](C)CO)C[C@H]1C |
| i | C[C@@H]1CN([C@@H](C)CO)C(=O)c2cc(NC(=O)Nc3ccc(F)cc3)ccc2O[C@@H](C)CCCCO[C@@H]1CN(C)S(=O)(=O)c1cccs1 |
